# High-throughput results: PubChem, National Center for Advancing Translational Sciences (NCATS)
# Rango complex inh: prevents formation of the Rango-importin beta complex. Potency, µM (titrated, usually from 92.2 µM), for the others: at the top dose inhibition of complex formation. 340,000 compounds, 0.031% hits. AID 540263. Rango CFP/YFP FRET sensor + importin beta, 45 min; active = rising FRET ratio curve, often small or poorly fitted; inconclusive = mostly compound fluorescence or quenching in the first reads; inactive = flat curves in all reads;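 also: potency is read from the fitted curve at half-maximal effect; 0% = DMSO wells and 100% = buffer wells lacking importin beta; nearly all actives have a fitted effect of over 15% in size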
# Target sequence (Q14974 whole entry, looked up): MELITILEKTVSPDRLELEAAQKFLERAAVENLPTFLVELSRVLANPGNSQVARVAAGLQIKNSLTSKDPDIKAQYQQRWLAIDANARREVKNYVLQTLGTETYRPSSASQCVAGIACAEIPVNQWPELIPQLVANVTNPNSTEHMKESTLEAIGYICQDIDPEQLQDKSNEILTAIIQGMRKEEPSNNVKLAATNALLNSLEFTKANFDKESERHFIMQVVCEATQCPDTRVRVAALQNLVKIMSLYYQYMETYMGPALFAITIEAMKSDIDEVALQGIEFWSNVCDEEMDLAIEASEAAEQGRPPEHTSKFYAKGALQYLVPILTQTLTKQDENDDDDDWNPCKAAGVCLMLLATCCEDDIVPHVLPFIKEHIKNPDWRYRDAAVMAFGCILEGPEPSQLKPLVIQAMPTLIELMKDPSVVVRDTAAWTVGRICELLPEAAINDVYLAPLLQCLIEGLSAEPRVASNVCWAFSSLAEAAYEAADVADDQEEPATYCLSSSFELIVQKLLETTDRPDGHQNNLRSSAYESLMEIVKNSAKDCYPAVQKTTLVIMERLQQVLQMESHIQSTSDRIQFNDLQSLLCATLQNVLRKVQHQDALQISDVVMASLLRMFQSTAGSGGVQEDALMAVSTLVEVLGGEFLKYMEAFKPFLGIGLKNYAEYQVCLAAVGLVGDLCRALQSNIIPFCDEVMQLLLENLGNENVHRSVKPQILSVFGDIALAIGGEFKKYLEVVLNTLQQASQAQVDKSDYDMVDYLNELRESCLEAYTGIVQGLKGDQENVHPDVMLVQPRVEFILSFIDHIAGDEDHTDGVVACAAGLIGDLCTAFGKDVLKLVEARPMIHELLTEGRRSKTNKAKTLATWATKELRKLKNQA
#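 Inhibition scored from the CFP 486 nm/YFP 530 nm FRET ratio 45 min after adding 0.125 microM importin beta to 50 nM Rango biosensor preincubated 5 min with compound (room temperature, PBS with DTT, Tween-20, BSA). No-importin wells as positive control.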
# GLA inh pH 4.5: inhibitors of human alpha-galactosidase A at pH 4.5 | purified enzyme, 4-MU-alpha-Gal fluorescence, pH 4.5 | activity change, negative = inhibition, % at 105 µM | 230,000 tested, under 10 active | AID 1467; inconclusive = small, poorly fitted or top-dose-only inhibition, or a rising curve; inactive = flat fitted curve, though single readings scatter; no compound was filed as active;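 also: 0% = full activity with enzyme and -100% = basal without enzyme; dose as in the result columns while the protocol names 77 µM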
# Rango dissoc inh: inhibitors of RanGTP-induced Rango-importin beta complex dissociation. O95149+P62826. Biochemical FRET Rango-importin beta, RanGTP-induced dissociation. Potency, µM (doses to about 46.1 µM), inactives show top-dose activity change, negative = inhibition. 340,000 compounds, 0.071% hits; active means falling FRET ratio curve, often poorly fitted, with flat reads before Ran was added; inconclusive means other falling curves, or compound fluorescence or quenching; inactive means flat or rising ratio curve;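 also: potency is read from the fitted curve at half-maximal effect; % of control where 0% means no effect; nearly all actives have a fitted effect of over 45% in size; -100% = wells without RanGTP and RCC1; the record marks most hits as doubtful in a second field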
#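 Rango/importin beta premix (0.1/0.25 uM final), PBS + 1 mM DTT + 0.02% Tween-20 + 0.1% BSA; cpd 5 min RT; FRET pre-read; + RanGTP-RCC1 (0.6 uM Ran, 2 mM GTP, 0.2 uM RCC1); 45 min RT; FRET post-read, ex 430, em 486/530 nm.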
# miR-21 reporter: miR-21 reporter, rising signal; HeLa miR-21 FLuc reporter, luciferase, 48 h; 340,000 tested, under 10 active; Potency, µM (series often up to 38.3 µM), for inactives: at the top dose reporter change, positive = more light; active = well fitted rising curve with a large enough effect; inconclusive = small, poorly fitted or top-dose-only effect; inactive = no such curve, though single readings can be large or run the other way;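 also: % of control where 0% means no effect; miR-21 action dims this reporter so a rising signal means less miR-21 action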
#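 Luminescence from a firefly luciferase reporter carrying a miR-21 binding site downstream, stably expressed under a CMV promoter in HeLa cells that make miR-21 endogenously, reports miRNA modulation after 48 h compound exposure up to approximately 40uM final.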
# * marks the source's active call; other numbers are inactive results; ? = inconclusive; / = not tested or not shown; & = joins results of further samples. A portion of the library; count on the stated rates, not on these rows.
GLA inh pH 4.5,Rango dissoc inh,Rango complex inh,miR-21 reporter,Compound
/,-4%,?,/,COc1ccccc1/C=C/C(=O)Nc1cccc(S(=O)(=O)N2CCOCC2)c1
-5,16%,-1.0%,-15%,c1ccc2c(NC3=NCCCCS3)cccc2c1
-6,2%,?,-3%,O=C(c1ccccc1)N1CCN(c2ccc([N+](=O)[O-])cc2-n2cccc2)CC1
/,-9%,1.3%,-15%,C=CCn1c(=O)c(C(=O)NCc2ccc3c(c2)OCO3)c(O)c2ccccc21
/,-6%,1.1%,/,O=C(COC(=O)C1=COCCO1)Nc1c(F)cccc1F
11,0%,-5.2%,1%,Cc1cccc(NC(=O)c2cc(NC(=O)CCCC(=O)O)ccc2Cl)n1
6,2%,0.0%,-13%,Cc1ccc(S(=O)(=O)/N=c2\ccc(Cl)cn2C(F)F)cc1
/,-1%,0.8%,-5%,Cc1ccccc1NC(=O)N1CCNC(=O)C1CC(=O)Nc1cc(Cl)ccc1Cl (centres undefined)
/,-11%,-0.3%,0%,CC1CCCN(C(=O)C2CCN(S(=O)(=O)c3cccc4nsnc34)CC2)C1 (centres undefined)
/,-5%,-2.2%,/,COc1ccc(NS(=O)(=O)c2cccc3ccccc23)cc1
-5,10%,0.1%,10%,Cc1sc2ncnc(NCC3COc4ccccc4O3)c2c1C (centres undefined)
-6,-7%,-1.4%,-68%,O=C(Nc1ccccc1Cl)c1csc(-c2cccnc2)n1
2,-2%,-4.1%,-1%,Cc1c(S(=O)(=O)N2CCN(C(=O)c3ccco3)CC2)c(=O)n(C)c(=O)n1C
/,-11%,0.1%,/,CCOC(=O)c1ccc(NC(=O)c2c(N)n(Cc3ccccc3)c(=O)[nH]c2=O)cc1
/,0%,3.2%,-9%,Cc1ccc2[nH]cc(CCNC(=O)c3cccs3)c2c1
-9,6%,-1.3%,-2%,CCC(CC)C(=O)Oc1c(Sc2ccccc2[N+](=O)[O-])c(C)nn1C(C)(C)C
-1,11%,-4.7%,-1%,O=C(O)c1ccc(NS(=O)(=O)c2cccc3cccnc23)cc1
-25,0%,2.2%,0%,COc1ccccc1N1CCN(C(=O)CN2C(=O)c3cccc4cccc(c34)C2=O)CC1
/,19%,-0.1%,2%,COc1ccccc1NS(=O)(=O)c1ccc2nc(CCl)[nH]c2c1
-2,13%,-1.5%,-2%,CCCn1nc(Oc2nc(SC)nc(N(C)C)n2)ccc1=O

# Complete entries, quoted from the list. Screens in order: GLA inh pH 4.5, Rango dissoc inh, Rango complex inh, miR-21 reporter
# Shown for CCCn1nc(Oc2nc(SC)nc(N(C)C)n2)ccc1=O : -2, 13%, -1.5%, -2%
# Shown for COc1ccccc1N1CCN(C(=O)CN2C(=O)c3cccc4cccc(c34)C2=O)CC1 : -25, 0%, 2.2%, 0%
# Shown for Cc1cccc(NC(=O)c2cc(NC(=O)CCCC(=O)O)ccc2Cl)n1 : 11, 0%, -5.2%, 1%
# Shown for Cc1ccccc1NC(=O)N1CCNC(=O)C1CC(=O)Nc1cc(Cl)ccc1Cl (centres undefined) : /, -1%, 0.8%, -5%
# Shown for COc1ccc(NS(=O)(=O)c2cccc3ccccc23)cc1 : /, -5%, -2.2%, /

# Carrying on.
GLA inh pH 4.5,Rango dissoc inh,Rango complex inh,miR-21 reporter,Compound
0,-7%,0.1%,-5%,COc1ccc(CCNC(=O)C2CCN(S(=O)(=O)N3CCCCC3)CC2)cc1OC
/,5%,1.8%,/,CCC(C(=O)OCC(=O)N1CCN(S(=O)(=O)c2ccc(C)cc2C)CC1)c1ccccc1 (centres undefined)
4,9%,-0.5%,-12%,CCOCCn1c(SCc2ccccc2)nc2c1c(=O)[nH]c(=O)n2C
0,2%,-5.5%,9%,O=c1c2ccccc2nc(N2CCN(c3ccccc3)CC2)n1Cc1ccccc1
3,-7%,0.6%,-21%,CCOc1ccc(/C=C/C(=O)CCC(=O)O)cc1
-3,9%,0.0%,-63%,O=C(N/N=C/C=C/c1ccccc1)c1cccs1
-2,-3%,0.1%,-4%,Cc1ccc(NNc2c(C)nc3ccccc3nc2=O)cc1
5,6%,1.9%,-10%,Cc1ccc(/C=N/NC(=O)C2(C)CC2(Br)Br)cc1 (centres undefined)
4,-1%,?,-1%,CC(C)CCn1cnc2c(c1=O)c1nc3ccccc3nc1n2Cc1ccc2c(c1)OCO2
1,-1%,-1.4%,-1%,COc1cc(OC)c(NS(=O)(=O)c2cc(C(=O)OCC(=O)NCC3CCCO3)ccc2OC)cc1Cl (centres undefined)
/,-14%,-1.4%,/,O=C(c1ccc(OCc2cn3ccccc3n2)cc1)N1CCN(S(=O)(=O)c2ccccc2F)CC1
/,-11%,-2.8%,-33%,CC1(C(=O)Nc2ccc3c(c2)OCCO3)CC1(Cl)Cl (centres undefined)
-4,11%,-1.7%,-41%,Brc1ccc(-c2ncc(-c3ccccc3)cn2)cc1
7,5%,-0.3%,-26%,CC(C)c1ccc(-c2noc(C3CCCN(S(C)(=O)=O)C3)n2)cc1 (centres undefined)
-4,2%,-0.8%,-1%,Cc1c(NC(=O)c2ccc3c(c2)OCO3)c(=O)n(-c2ccccc2)n1C
8,11%,-0.1%,0%,COc1cc([N+](=O)[O-])cc2cc(C(=O)N3CCCC3)c(=O)oc12
7,7%,-5.6%,-64%,CC(OC(=O)CNC(=O)c1ccccc1F)C(=O)Nc1nc(-c2ccccc2)cs1 (centres undefined)
-13,-9%,1.3%,-3%,CCN(CC)Cc1cc(C(C)=O)ccc1OCC(C)C
4,3%,?,1%,COc1cc(/C=C2/C(=O)NN(c3cccc(C)c3)C2=O)cc([N+](=O)[O-])c1O
0,4%,1.8%,2%,CSc1nc(SC(C)C(=O)O)c2c3c(sc2n1)COC(C)(C)C3 (centres undefined)
6,/,/,-3%,Cc1cccc(Nc2nc(N)nc(CC(=O)CSc3ccc(Cl)cc3)n2)c1
/,?,?,/,Cn1c(N)c(N=Cc2ccccc2)c(=O)n(C)c1=O
7,8%,6.9%,-15%,CCn1nnc(NC(=O)C(C)Oc2ccc(Cl)cc2Cl)n1 (centres undefined)
/,-16%,0.4%,15%,CC(C)C(C(=O)Nc1ccncc1)c1ccc(Cl)cc1 (centres undefined)
10,-1%,-3.8%,0%,Cc1ccc(/C=C/C(=O)N2CCN(c3ccc(F)cc3)CC2)o1
-12,-2%,0.6%,1%,COc1ccc(N2CCN(S(=O)(=O)c3ccc(Cl)c(C(F)(F)F)c3)CC2)cc1
-6,-15%,2.2%,-5%,CCOC(=O)C1CN(c2cc3c(cc2F)c(=O)c(C(=O)O)cn3CC)OC1C(=O)OCC (centres undefined)
-1,1%,-2.3%,-9%,COc1ccc(NS(=O)(=O)c2ccc(NC(=S)NC(=O)c3ccc(Br)cc3)cc2)nn1
/,-7%,-0.5%,/,O=C(Cn1cc(COc2ccccc2C(F)(F)F)nn1)c1ccc(O)cc1
-3,-4%,-0.2%,-3%,CCOC(=O)C1CCCN(C2CC(=O)N(c3ccc(NC(C)=O)cc3)C2=O)C1 (centres undefined)
2,-1%,-2.0%,22%,Cc1cnc(NC(=O)CSc2ncc(-c3ccccc3)n2Cc2ccco2)s1
/,16%,-1.4%,0%,CC(=O)NS(=O)(=O)c1ccc(NC(=S)Nc2ccccc2)cc1
/,-14%,-0.2%,/,O=S(=O)(NCCSCc1ccc(Cl)c(Cl)c1)c1ccc2c(c1)OCCO2
-8,3%,-2.0%,-12%,O=C(NCc1ccccn1)c1ccc(Cn2c(=S)[nH]c3ccccc3c2=O)cc1
/,-3%,2.4%,0%,CC1CC(=O)N(CC(=O)NCc2ccc(F)cc2)c2ccccc2S1(=O)=O (centres undefined)
13,-8%,-1.0%,-14%,CC1CCC(NC(=O)c2cnccn2)CC1 (centres undefined)
8,-9%,-1.6%,-2%,CCNC(=O)COC(=O)CCNC(=O)c1ccc(Cl)cc1
-1,-27%,-0.7%,-4%,COc1ccc(/C=C(/NC(=O)c2ccccc2)C(=O)N/N=C/c2ccc3c(c2)OCO3)cc1OC
/,-2%,-0.6%,2%,CCOC(=O)[C@@H]1[C@H]2COc3ccccc3[C@H]2N2C(=O)N(c3cccc(Cl)c3)C(=O)[C@@]12C
-3,-26%,?,4%,CCCn1nc(NC(=O)c2ccncc2)c2cc3ccccc3nc21
-1,-3%,1.1%,5%,Cc1cc(C)c(NC(=O)CCn2nnc3ccccc32)c(C)c1
-3,1%,-0.3%,-1%,O=C(O)/C(=C\c1ccc(Cl)c([N+](=O)[O-])c1)c1ccc(S(=O)(=O)N2CCCCC2)s1
/,8%,0.3%,/,CCOc1ncccc1C(=O)OCC(=O)Nc1nnc(-c2ccccc2)o1
/,13%,4.1%,-13%,CS(=O)(=O)c1ccc(NCCc2ccccn2)c([N+](=O)[O-])c1
/,-1%,-2.5%,/,COCCN(C(=O)COC(=O)/C=C/c1ccc2c(c1)OCO2)c1c(N)n(Cc2ccccc2)c(=O)[nH]c1=O
1,-4%,-4.0%,2%,Cc1[nH]n(C(C)(C)C)c(=O)c1Sc1ccc(Cl)cc1
/,1%,1.8%,/,COc1ccc(C)cc1NC(C)C(=O)NC(=O)NC1CCCCC1 (centres undefined)
8,-1%,-0.5%,24%,Cc1[nH]c2ccccc2c1C(=O)CN1C(=O)NC(C)(c2ccc(Cl)cc2Cl)C1=O (centres undefined)
-6,23%,0.2%,2%,CC(=O)Nc1c(C)ccc(CNC(=O)COc2cc(C)ccc2C)c1C
-4,5%,-1.2%,1%,CCOc1ccc(OCC)c(NC(=O)C2CCN(S(=O)(=O)c3c(C)noc3C)CC2)c1

# (cont.)
GLA inh pH 4.5,Rango dissoc inh,Rango complex inh,miR-21 reporter,Compound
2,-20%,-1.1%,2%,Cc1cc2cc3c(cc2nc1SCC(=O)O)OCCO3
-11,26%,15%,-12%,CC1=C/C(=C\C=C(C#N)C#N)N(C)c2ccccc21
/,-2%,-0.3%,/,CCOC(=O)[C@H]1[C@H]2COc3ccc(Br)cc3[C@@H]2N2C(=O)c3cc(F)c(F)cc3NC(=O)[C@@]12C
-16,38%,?,?,COc1ccc(C)cc1NS(=O)(=O)c1ccc(NC(=O)CN(c2cc([N+](=O)[O-])ccc2C)S(C)(=O)=O)cc1
9,38%,-4.3%,-13%,CCc1c(C)c2c(C)nn(-c3ccccc3)c2[nH]c1=O
-6&5,0%,2.2%,0%,CCOC(=O)CN1C(=O)N[C@@H](c2ccccc2)C(C(=O)OC)=C1C
/,4%,1.8%,4%,C=C(C)c1ccccc1NC(=O)CCN1C(=O)c2ccccc2S1(=O)=O
7,-25%,6.4%,-36%,Cc1cc(C(=O)Nc2ccc(OCc3ccccc3)cc2)c(C)o1
3,-2%,1.3%,-2%,CCOC(=O)c1ccc(NC(=S)Nc2cc(C)cc(C)n2)cc1
/,2%,1.3%,-5%,O=C(O)CN1C(=O)/C(=C/c2ccccc2Cl)Oc2ccccc21
5,-12%,-2.3%,-14%,Clc1ccc(C2Nc3ccccc3-n3cccc32)cc1 (centres undefined)
/,6%,0.3%,/,O=C(COC(=O)CCC(=O)c1ccccc1)NNC(=O)c1ccc(Cl)cc1
4,14%,-2.6%,0%,COc1ccc(NC(=S)NCCCN2CCCC2)cc1
/,2%,-1.5%,2%,CN(C(=O)Cn1cnc([N+](=O)[O-])n1)C1CCCCC1
/,8%,?,/,O=C(CN1C(=O)NC2(CCCCC2)C1=O)Nc1ccccc1N1CCCCC1
-7,18%,5.7%,0%,CCCn1c(CN(Cc2ccccc2)Cc2ccccc2)nc2c1c(=O)n(C)c(=O)n2C
-6,-19%,0.0%,-4%,CCCCc1cc(=O)oc2cc(C)c(CN3CCCC3)c(O)c12
0,-4%,3.7%,0%,CC1Cc2ccccc2N1C(=O)c1ccc(N2CCCC2)c([N+](=O)[O-])c1 (centres undefined)
/,0%,0.5%,/,CCN1CCN(c2ccc(N3CCN(S(=O)(=O)c4ccc(C)c([N+](=O)[O-])c4)CC3)nn2)CC1
4,-6%,3.7%,-15%,Cc1ccc2nc(NC(=O)CSc3nnc(C)c(=O)n3N)sc2c1
